LANA-H2B inh: blockers of LANA interaction with H2A/H2B – biochemical, FP readout, HTS, primary screen; Protein LANA1 (Human herpesvirus 8 type P (isolate GK18)), Q9QR71; cell-free LANA-H2A/H2B peptide, fluorescence polarization; inhibition, % (concentration not given with the values); 320,000 tested, 0.6% active; in the data active = inhibition mostly above about 10%, no sharp cut-off; inactive = mostly below about 6.7%;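 also: stock transfer was 7.5 nL into about 10 µL; 0% = median of vehicle wells and 100% = median of positive control wells; one replicate is shown; the record names a cut of 25% in any replicate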
Ecoli rRNA inh: reduced GFP signal of wild-type E. coli, primary screen, bacterial rRNA inhibitor project, GFP/RFP fluorescence, OD600, single point; E. coli WT GFP vs humanized-ribosome RFP mutants, 24 h; active compounds read low; DMSO median 0, no signal -100; GFP signal change (wild-type ribosome), % (no concentration beside the values); AID 720706, 2013; 350,000 tested, 1.6% active;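 active = significant combined selectivity score with lowered wild-type GFP, culture density cut under 30%, mutant RFP and density less affected; inactive = any of these conditions unmet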; also: one replicate is shown; some compounds called inactive have numbers as strong as hits
Beta cell apopt: inhibitors of cytokine-induced beta cell apoptosis, primary screen, luminescence. INS-1E cytokine-induced death, ATP luminescence, 48 h; percent of positive-control rescue, neutral wells zero. protection from apoptosis, % (test concentration not listed). 300,000 tested, 0.8% active. AID 435005, 2010;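 active = all replicates at 75% or more, or half of them and the mean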;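 also: 0% = cytokine-treated negative control wells and 100% = positive control rescue; higher means more ATP so stronger rescue from cytokine killing; wells of about 40 µL received 100 nL stock; the first replicate is given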
Calb FLC: C. albicans growth inhibition with fluconazole, primary screen, CaCi-2 strain, Alamar Blue fluorescence. 300,000 tested, 0.57% active. C. albicans CaCi-2 (fluconazole-resistant clinical isolate) + fluconazole, 48 h. growth inhibition, % (concentration not given with the values). AID 1979, 2009;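 active = most replicates above 75%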;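 also: all wells also contain fluconazole at 8 µg/ml as a sub-toxic cotreatment; 0% = median of DMSO wells and 100% = median of geldanamycin control wells; wells of about 8 µL received 7.5 nL stock; the first replicate is given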
Beta2AR agonist: beta2AR agonists driving receptor internalization, primary screen, cell-based, FAP fluorogen, flow cytometry | Beta-2 adrenergic receptor (Homo sapiens), P07550 | response, % (no concentration beside the values) | AID 504454, 2011 | 340,000 tested, 0.43% active | Am2.2-beta2AR cells; reference of the scale not given here;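 active = response above a set limit, near 3 SD of response in nonfluorescent compounds, cut at about 42% in these data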;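 also: stock transfer was 100 nL into about 11 µL; a reference agonist was the positive control; negative values mostly stem from fluorescent compounds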
Target sequence (P07550 whole entry, looked up): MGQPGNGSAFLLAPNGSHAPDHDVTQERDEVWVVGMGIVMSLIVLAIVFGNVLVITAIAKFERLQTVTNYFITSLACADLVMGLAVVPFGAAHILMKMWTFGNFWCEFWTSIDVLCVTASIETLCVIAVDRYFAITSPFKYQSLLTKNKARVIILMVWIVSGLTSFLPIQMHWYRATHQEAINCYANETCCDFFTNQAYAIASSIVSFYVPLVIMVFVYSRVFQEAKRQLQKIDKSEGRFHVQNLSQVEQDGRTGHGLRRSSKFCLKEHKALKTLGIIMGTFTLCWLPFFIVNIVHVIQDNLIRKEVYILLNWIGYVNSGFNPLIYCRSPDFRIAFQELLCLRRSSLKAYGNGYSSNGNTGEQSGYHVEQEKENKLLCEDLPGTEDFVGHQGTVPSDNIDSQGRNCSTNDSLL
Bfl-1 A1 inh: caspase 3/7 activation in MEF A1-2A-BIM cells, primary screen, A1 inhibitor project, cell-based, luminescence, HTS. 330,000 tested, 0.066% active. Caspase-Glo 3/7 luminescence, 3 h; percent of clofoctol response, vehicle zero. caspase activation, % (concentration not given with the values);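 active = over half of replicate activation scores above 10%, or exactly half above 10 with the replicate mean above 10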;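 also: wells of about 30 µL received 50 nL stock; many hits fall short of the cut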
ALR H2O2 inh: inhibitors of human ALR sulfhydryl oxidase, primary screen, biochemical, H2O2 detection, HRP-luminol luminescence, single point. FAD-linked sulfhydryl oxidase ALR (Homo sapiens), P55789. purified ALR, DTT oxidation. inhibition, % (no concentration beside the values). 290,000 tested, 3.8% active;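 active = mean and each replicate at 75% or more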;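 also: stock transfer was 7.5 nL into about 7.5 µL; 0% = neutral wells and 100% = wells with inactivated enzyme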
Target sequence (P55789 whole entry, looked up): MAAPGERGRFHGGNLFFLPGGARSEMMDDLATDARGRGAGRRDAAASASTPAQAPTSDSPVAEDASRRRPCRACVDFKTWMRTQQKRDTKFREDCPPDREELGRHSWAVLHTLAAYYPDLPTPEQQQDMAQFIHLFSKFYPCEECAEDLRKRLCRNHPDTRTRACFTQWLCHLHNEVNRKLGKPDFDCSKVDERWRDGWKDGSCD
T cruzi repl: inhibitors of intracellular T. cruzi growth, primary screen, luminescence, NIH3T3 host cells; 300,000 tested, 1.4% active; T. cruzi beta-gal in NIH3T3, 90 h; AID 1885, 2009; inhibition, % (no concentration beside the values);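 active = mean inhibition across valid replicates above about 55%, limit read from the data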;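 also: signal also drops with host cell toxicity which is not excluded here; 0% = plate median of DMSO wells and 100% = zero luminescence signal; higher percent means less beta-gal luminescence so fewer parasites; stock transfer was 50 nL into about 50 µL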
Ecoli rRNA inh OD600: also measured in Ecoli rRNA inh; calls as there; OD600 change, %; measured here: OD600 growth;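 optical density of the mix in the first replicate; 0 = DMSO median and -100 = no signal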
Ecoli rRNA inh RFP: recorded beside Ecoli rRNA inh, whose call it bears; RFP signal change, %; measured here: RFP humanized mutant strains;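 first replicate; 0 = DMSO median and -100 = no signal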
An asterisk follows results filed as active; i = inactive; . = not tested or not shown. The list is partial; rates above refer to the full screens.

SMILES | LANA-H2B inh | Ecoli rRNA inh | Ecoli rRNA inh OD600 | Ecoli rRNA inh RFP | Beta cell apopt | Calb FLC | Beta2AR agonist | Bfl-1 A1 inh | ALR H2O2 inh | T cruzi repl
CCNC(=S)NNC(=O)CC(C)C | -3.9 | 20 | 9 | -3.7 | -2 | -8 | 2 | 0.0 | -1 | -9
CCOC(=O)c1ccc(N/C=C/C(=O)C(C)(C)C)cc1 | 0.9 | 7 | 10 | 2.5 | 1 | -5 | -2 | -0.2 | -4 | 4
Cc1ccccc1C(=O)Nc1cccc(-c2ccc(N3CCOCC3)nn2)c1 | -3.7 | 3 | 9 | -1.0 | 4 | 2 | 1 | -3.9 | . | -9
O=C(NC1CCCCCC1)C(=O)NC1CC1 | -0.5 | 10 | 12 | -0.3 | -3 | -3 | -4 | 0.0 | -3 | -6
COc1cc(CCCN2C(=S)NC[C@@H]2CCCCN)cc(OC)c1OC | 2.1 | 2 | 4 | 8.5 | -6 | -1 | -1 | 0.4 | . | -30
CCOC(=O)c1cccnc1SCC(=O)N(CC)c1cccc(C)c1 | 1.9 | . | . | . | -14 | -7 | 1 | 1.2 | -17 | 10
O=C(CN(C1CCCCC1)S(=O)(=O)c1ccc(Br)cc1)NCc1cccnc1 | -0.4 | -20 | -24 | -3.8 | 1 | 1 | -7 | 0.1 | 1 | 12
CN(CC(=O)Nc1ccccc1Br)C(=O)c1cc([N+](=O)[O-])ccc1N1CCOCC1 | -1.3 | -6 | 6 | -0.9 | -2 | -4 | 20 | -1.3 | -18 | -3
O=C(O)CCCCn1c(SCc2cc(=O)n3cc(Cl)ccc3n2)nc2ccsc2c1=O | -14 | 7 | 8 | -1.7 | . | 28 | -14 | 1.1 | -4 | 11
O=C(CCc1c[nH]c2ccccc12)NC(Cc1c[nH]c2ccccc12)C(=O)O (stereo not drawn) | -3.1 | 4 | -1 | -2.1 | 1 | -2 | 3 | 0.3 | -1 | -3
CC(C)CC1NC(=O)N(Cc2cc(=O)n3ccsc3n2)C1=O (stereo not drawn) | -17 | 14 | 7 | 1.7 | 0 | -21 | 8 | 0.2 | -4 | 1
Cc1ccc(SCc2c(C(=O)N/N=C/c3cccnc3)nnn2-c2nonc2N)cc1 | 3.9 | -39 | -39 | -10 | -4 | 20 | 11 | 0.1 | -17 | -7
CN(C)c1ccnc(Oc2ccc(C(C)(C)C)cc2)c1C#N | 0.2 | . | . | . | 7 | 47 | 10 | 0.6 | -12 | 18
Nc1cc(Cl)ccc1C(=O)OCC(=O)NC1CCS(=O)(=O)C1 (stereo not drawn) | 2.1 | . | . | . | 0 | -2 | 2 | -0.3 | -15 | -14
CN(C(=O)COC(=O)c1ccc(Cl)cc1N)C1CCCCC1 | -3.2 | 8 | 5 | -5.3 | 2 | 12 | -4 | 0.9 | 15 | 4
CC(C)NC(=O)C1CCN(C2CCN(C(=O)Cc3ccc4c(c3)OCO4)CC2)CC1 | 10 | 29 | 24 | 0.5 | 0 | -14 | 1 | 0.2 | -1 | 2
Fc1ccc(CNc2ncccn2)cc1 | -1.5 | 11 | 8 | 2.5 | -3 | -6 | -8 | 0.0 | -11 | -12
CC(C)CN(C(=O)COC(=O)/C=C/c1cccs1)c1c(N)n(Cc2ccccc2)c(=O)[nH]c1=O | 4.4 | 14 | 12 | 4.9 | 2 | -4 | -3 | 0.4 | -6 | -5
CC1=Nc2ccccc2/C1=C\c1nc(-c2ccc(C(F)(F)F)cc2)oc1O | -0.8 | 30 | 9 | 9.7 | -2 | -10 | i | 0.8 | 1 | 16
O=C(NCCc1ccc(F)cc1)c1ccc(NS(=O)(=O)c2ccc3[nH]c(=O)[nH]c3c2)cc1 | 2.1 | 10 | -1 | 1.1 | -3 | . | 7 | 0.8 | -2 | -3
Cc1ccc(NC(=S)NNC(=O)c2ccc(N3CCOCC3)c([N+](=O)[O-])c2)cc1C | -0.8 | . | . | . | . | 37 | 2 | -0.5 | 23 | -19
COC(=O)c1ccc(-c2ccc(/C=N/NC(=O)Cc3nnc(N)s3)o2)cc1 | -0.8 | -7 | 3 | 0.7 | 4 | 6 | 7 | -1.1 | -17 | -16
c1ccc(CNc2ncnc3c2cnn3Cc2ccccc2)cc1 | -4.9 | -17 | -26 | 7.4 | 24 | 5 | -7 | 0.2 | -1 | -39
CC12CCC(C(=O)N3CCOCC3)([C@H](Br)C1=O)C2(C)C (stereo partly drawn) | 3.0 | 14 | 4 | 1.5 | -4 | 2 | 4 | 1.5 | 3 | -7
O=C(c1cc(Br)ccc1Cl)N1CCN(c2ccc(N3CCOCC3)nn2)CC1 | 5.9 | 2 | -1 | -0.4 | . | -12 | -8 | 0.1 | 5 | 1
COc1ccc(/C(O)=C/C(=O)C(=O)Nc2c(C)n(C)n(-c3ccccc3)c2=O)cc1 | 0.0 | . | . | . | -4 | -13 | 2 | 1.8 | 15 | -14
Cc1cccc(N2CCN(S(=O)(=O)c3ccc4c(c3)CC(=O)N4C)CC2)c1C | -2.9 | 7 | 8 | 5.1 | -4 | -17 | -13 | -0.2 | -1 | 29
COc1cc(OC)cc(-c2c(C#Cc3ccsc3)c3cc(Br)ccc3n2C)c1 | 0.9 | 5 | 3 | 10 | 13 | . | -7 | -0.2 | 0 | .
CCOc1ccc(C2c3cc(OC)c(OC)cc3CC(=O)N2c2ccccc2)cc1 (stereo not drawn) | 1.5 | . | . | . | -1 | 6 | -5 | 0.3 | -4 | 17
Nc1nc2ccc(O)cc2s1 | -2.7 | . | . | . | 4 | 30 | 10 | 0.3 | 99* | -39
Cc1cc(C)nc(SCC(=O)c2c(N)n(C)c(=O)n(C)c2=O)n1 | 1.6 | . | . | . | -7 | -23 | -16 | -0.4 | -5 | -11
CCSc1nc2c(c(=O)[nH]1)C(c1ccc(C)cc1)C1=C(CCCC1=O)N2 (stereo not drawn) | 2.1 | 10 | 9 | 2.8 | . | 0 | -6 | -0.7 | -1 | -16
COc1cccc2cc(C(=O)N3CCCCCCC3)c(=O)oc12 | -0.3 | -6 | -1 | 1.9 | -1 | -4 | -4 | 0.1 | -17 | 7
O=C(NNC(=O)c1cccs1)c1ccc(Cl)c([N+](=O)[O-])c1 | -1.4 | -4 | 2 | 0.2 | -3 | -20 | -7 | 1.7 | 2 | -12
COc1ccccc1CNCc1ccc(OC)c(OC)c1OC | 4.5 | . | . | . | . | -20 | -7 | -0.1 | -13 | -8
Cc1ccc(C)c2nc3sc(C(=O)O)cc3cc12 | 1.9 | -40 | -47 | -8.8 | . | 2 | 6 | 0.4 | 63 | 8

Gathered by group, the entries above with a tert-butyl group (two)
SMILES | LANA-H2B inh | Ecoli rRNA inh | Ecoli rRNA inh OD600 | Ecoli rRNA inh RFP | Beta cell apopt | Calb FLC | Beta2AR agonist | Bfl-1 A1 inh | ALR H2O2 inh | T cruzi repl
CCOC(=O)c1ccc(N/C=C/C(=O)C(C)(C)C)cc1 | 0.9 | 7 | 10 | 2.5 | 1 | -5 | -2 | -0.2 | -4 | 4
CN(C)c1ccnc(Oc2ccc(C(C)(C)C)cc2)c1C#N | 0.2 | . | . | . | 7 | 47 | 10 | 0.6 | -12 | 18

Some values from the entries so far:
Calb FLC, `COc1ccccc1CNCc1ccc(OC)c(OC)c1OC` : -20
Ecoli rRNA inh RFP, `O=C(CCc1c[nH]c2ccccc12)NC(Cc1c[nH]c2ccccc12)C(=O)O` (stereo not drawn) : -2.1
Beta2AR agonist, `CCNC(=S)NNC(=O)CC(C)C` : 2
Calb FLC, `CN(C(=O)COC(=O)c1ccc(Cl)cc1N)C1CCCCC1` : 12
T cruzi repl, `CCOc1ccc(C2c3cc(OC)c(OC)cc3CC(=O)N2c2ccccc2)cc1` (stereo not drawn) : 17

(continued)
SMILES | LANA-H2B inh | Ecoli rRNA inh | Ecoli rRNA inh OD600 | Ecoli rRNA inh RFP | Beta cell apopt | Calb FLC | Beta2AR agonist | Bfl-1 A1 inh | ALR H2O2 inh | T cruzi repl
O=CN1CCN(C(=O)c2ccc([N+](=O)[O-])cc2)CC1 | 1.8 | . | . | . | -11 | -1 | -9 | 0.3 | -10 | 0
CCOc1cc(S(=O)(=O)NCCCn2ccnc2)ccc1Cl | 0.9 | 0 | 2 | -0.9 | 1 | 2 | -5 | 1.2 | . | 3
CCCCS(=O)(=O)Nc1ccc2cn[nH]c2c1 | -4.2 | 4 | 8 | -4.6 | -10 | 20 | -2 | -0.7 | 0 | -3
O=C(O)C1C2C=CC(C2)C1C(=O)Nc1cccc(C(=O)N2CCCCC2)c1 (stereo not drawn) | 1.6 | -2 | 6 | -1.3 | 3 | -12 | 2 | 0.2 | -4 | -8
CCCCCCCNC(=O)C1(CC2CC(c3cccc(Br)c3)=NO2)CCN(C(=O)C2CCCC2)CC1 (stereo not drawn) | -5.9 | 30 | 11 | -5.2 | 5 | -5 | -3 | 2.2 | 2 | 23
COc1ccc(OCC(=O)N(C)CC2COc3ccccc3O2)cc1 (stereo not drawn) | 2.7 | -31 | -28 | -19 | -2 | . | -2 | -0.1 | -4 | .
O=C(CSc1cccc[n+]1[O-])Nc1ccc(C(F)(F)F)cc1[N+](=O)[O-] | 2.0 | -6 | -1 | -0.2 | 0 | 10 | -12 | -0.5 | 0 | -5
COc1cccc(CNC(=O)CCC2CCCN(C(=O)c3cccc4c(C)c(C)[nH]c34)C2)c1 (stereo not drawn) | -5.5 | 5 | 5 | 5.8 | -2 | -6 | 11 | 0.0 | 5 | 8
N#C/C(=C\c1cccnc1)c1ccc([N+](=O)[O-])cc1 | -2.2 | -6 | 0 | -2.4 | 1 | -8 | -2 | 0.2 | 3 | 47
CN1CCSc2ccc(C(=O)Nc3cc(F)ccc3F)cc21 | 4.8 | 3 | -1 | -2.7 | 3 | 22 | -8 | -6.2 | 10 | 4
Oc1ccc(/C=N/N2CCN(C3c4ccccc4-c4ccccc43)CC2)c(O)c1 | -4.7 | -5 | -4 | -11 | . | 5 | 3 | -0.4 | 9 | 7

Assay outcomes deposited in PubChem BioAssay by several laboratories.
